HCMV UL50-53 inh: cytomegalovirus nuclear egress complex inhibition | HTRF UL50-UL53 interaction, normalized percent inhibition | inhibition, % (no concentration beside the values) | 190,000 compounds, 0.15% hits | AID 1918969;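 active means both replicates at 50% or more, plus weaker picks with an unusually low signal ratio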;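 further: stock transfer was 100 nL into about 20 µL; 0% = negative control wells and 100% = wells with untagged competitor protein; inactives centre near -12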
GIV Gai3 FP: inhibitors of GIV GBA-motif binding to rat Galpha-i3; Galpha-i3/FITC-GIV peptide fluorescence polarization, 90 min; active compounds read low; scaled: aluminum fluoride 0%, vehicle 100%; percent of control (FP), % (concentration not given with the values); 210,000 compounds, 0.42% hits; AID 1224905;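 active means replicate mean at 85% of control or lower, very high polarization wells dropped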;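 further: wells of about 15 µL received 100 nL stock; the first replicate is given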
Target sequence (P08753 whole entry, looked up): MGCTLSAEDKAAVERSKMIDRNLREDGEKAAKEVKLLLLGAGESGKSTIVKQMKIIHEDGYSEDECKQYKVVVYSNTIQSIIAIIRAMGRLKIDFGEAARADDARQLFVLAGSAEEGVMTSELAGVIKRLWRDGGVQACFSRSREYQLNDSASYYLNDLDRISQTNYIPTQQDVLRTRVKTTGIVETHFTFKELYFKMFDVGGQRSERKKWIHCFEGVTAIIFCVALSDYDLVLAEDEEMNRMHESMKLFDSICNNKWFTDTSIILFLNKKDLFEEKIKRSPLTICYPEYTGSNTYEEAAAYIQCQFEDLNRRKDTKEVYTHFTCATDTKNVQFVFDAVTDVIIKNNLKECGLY
Sa growth 42C: inhibitors of Staphylococcus aureus growth at 42 °C; S. aureus RN4220 growth, OD600, 20 h; active compounds read low; relative growth, % (concentration not given with the values); 170,000 compounds, 0.53% hits;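 active means growth at 42 °C up to 50% and 20 or more points under that at 30 °C, or under 10% at both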;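 further: 300 nL library stock went into each well; scaled to the means of positive and negative controls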
Sa growth 42C second temp: also measured in Sa growth 42C; calls as there; relative growth, %; measured here: growth at 30 °C;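 optical density after 20 h as mean of two plates; 100% = untreated growth and lower means inhibition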
Active calls of the source: *; & = joins results of further samples.

The first five records, to show the layout:
O=C(NCCc1ccccc1)C(=O)NCC(c1cccnc1)N1CCN(c2ccc(F)cc2)CC1 (configuration not stated) was read as HCMV UL50-53 inh -1, GIV Gai3 FP 115, Sa growth 42C 81 and Sa growth 42C second temp 86.
For Cc1ccc(-c2noc(-c3ccc(NCc4cccnc4)c([N+](=O)[O-])c3)n2)cc1 the results were HCMV UL50-53 inh 2, GIV Gai3 FP 98, Sa growth 42C 98 and Sa growth 42C second temp 89.
`Cc1ccc2nc(CSc3nnc(NC(=O)COc4ccccc4F)s3)cc(=O)n2c1` gave GIV Gai3 FP 107, Sa growth 42C 110 and Sa growth 42C second temp 90.
NNc1nc2cc(Cl)ccc2nc1Cl was read as HCMV UL50-53 inh -16 and GIV Gai3 FP 108.
Screening COc1ccc(C2Nc3ccccc3C(=O)N2c2ccc(F)cc2)cc1Cn1nc(C)c([N+](=O)[O-])c1C (configuration not stated) returned HCMV UL50-53 inh -20 and GIV Gai3 FP 97.

The whole of this part, repeating the preview:
O=C(NCCc1ccccc1)C(=O)NCC(c1cccnc1)N1CCN(c2ccc(F)cc2)CC1 (configuration not stated) was read as HCMV UL50-53 inh -1, GIV Gai3 FP 115, Sa growth 42C 81 and Sa growth 42C second temp 86.
For Cc1ccc(-c2noc(-c3ccc(NCc4cccnc4)c([N+](=O)[O-])c3)n2)cc1 the results were HCMV UL50-53 inh 2, GIV Gai3 FP 98, Sa growth 42C 98 and Sa growth 42C second temp 89.
`Cc1ccc2nc(CSc3nnc(NC(=O)COc4ccccc4F)s3)cc(=O)n2c1` gave GIV Gai3 FP 107, Sa growth 42C 110 and Sa growth 42C second temp 90.
NNc1nc2cc(Cl)ccc2nc1Cl was read as HCMV UL50-53 inh -16 and GIV Gai3 FP 108.
Screening COc1ccc(C2Nc3ccccc3C(=O)N2c2ccc(F)cc2)cc1Cn1nc(C)c([N+](=O)[O-])c1C (configuration not stated) returned HCMV UL50-53 inh -20 and GIV Gai3 FP 97.
For Cc1cccn2c(=O)c(C=C3C(=O)NC(=S)NC3=O)c(N3CCCC3)nc12 the results were HCMV UL50-53 inh -53, Sa growth 42C 108 and Sa growth 42C second temp 96.
`O=C(OCC(=O)N1CCCC1)c1ccccc1OCc1ccccc1Cl` gave HCMV UL50-53 inh -3, Sa growth 42C 112 and Sa growth 42C second temp 97.
`COC(=O)/C=C/C(=O)N1CCN(c2ccccc2OC)CC1` gave HCMV UL50-53 inh 10, GIV Gai3 FP 108, Sa growth 42C 102 and Sa growth 42C second temp 99.
`Clc1c(-c2nnc3n2CCCCC3)sc2ccccc12` gave HCMV UL50-53 inh -4, Sa growth 42C 111 and Sa growth 42C second temp 94.
CC(OC(=O)c1cccs1)C(=O)Nc1cccc(Cl)c1Cl (configuration not stated) was read as HCMV UL50-53 inh -23, Sa growth 42C 123 and Sa growth 42C second temp 86.
O=C(Nc1ccc2oc(-c3cccnc3)nc2c1)c1ccc(-c2ccc(F)cc2)o1 was read as HCMV UL50-53 inh 8, GIV Gai3 FP 104, Sa growth 42C 94 and Sa growth 42C second temp 103.
Screening O=C(Cn1cnc2c(nnn2Cc2ccccc2F)c1=O)NCc1ccc2c(c1)OCO2 returned HCMV UL50-53 inh -3, GIV Gai3 FP 99, Sa growth 42C 114 and Sa growth 42C second temp 87.
`O=C(Nc1ccc(Cl)cc1)C1CCN(c2nnc(-n3cccc3)s2)CC1` gave HCMV UL50-53 inh -8 and GIV Gai3 FP 95.
Screening C=CCc1cccc2cc(C(N)=O)c(=N)oc12 returned HCMV UL50-53 inh -114, GIV Gai3 FP 113, Sa growth 42C 102 and Sa growth 42C second temp 80.
`O=C(OC(C(=O)NCc1ccc2c(c1)OCO2)c1ccccc1F)c1ccco1` (configuration not stated) gave HCMV UL50-53 inh -5, GIV Gai3 FP 104, Sa growth 42C 122 and Sa growth 42C second temp 96.
`O=C(CSC1=NCCS1)n1c2c(c3ccccc31)CCCC2` gave HCMV UL50-53 inh -28, GIV Gai3 FP 105, Sa growth 42C 84 and Sa growth 42C second temp 86.
`Cc1ccc(Cl)cc1NC(=O)c1cnn2c1NC(c1ccc(Br)cc1)=CC2c1ccccc1` (configuration not stated) gave HCMV UL50-53 inh -41 and GIV Gai3 FP 103.
For CCN(CC)S(=O)(=O)c1cccc(C(=O)OCC(=O)c2cccs2)c1 the results were HCMV UL50-53 inh 9, Sa growth 42C 103 and Sa growth 42C second temp 91.
For CCN1C(=O)C2C(c3ccc(OC)cc3)NC(CC)(C(=O)OC)C2C1=O (configuration not stated) the results were HCMV UL50-53 inh -8, GIV Gai3 FP 99, Sa growth 42C 97 and Sa growth 42C second temp 104.
O=C(Nc1cnc(N2CCN(c3ccccc3)CC2)c(C(=O)O)c1)c1cccs1 was read as GIV Gai3 FP 108, Sa growth 42C 121 and Sa growth 42C second temp 101.
`CCc1nn(CC(=O)NCCCN2CCCCC2CC)c(=O)c2cc3sc(C)cc3n12` (configuration not stated) gave HCMV UL50-53 inh -28, GIV Gai3 FP 100, Sa growth 42C 101 and Sa growth 42C second temp 89.
For O=C(Cn1ccn2nc(-c3ccc4c(c3)OCO4)cc2c1=O)Nc1ccc(F)cc1F the results were HCMV UL50-53 inh -22 and GIV Gai3 FP 99.
For CCCn1c(Cn2ccnc2C)nc2cc(NC(=O)c3ccccc3)ccc21 the results were HCMV UL50-53 inh -15 and GIV Gai3 FP 99.
`CC(C(=O)C12CC3CC(CC(C3)C1)C2)N(C)C` (configuration not stated) gave HCMV UL50-53 inh -19, GIV Gai3 FP 100, Sa growth 42C 93 and Sa growth 42C second temp 91.
For Cc1cc(C(Nc2ccccn2)c2ccccn2)c(NC(=O)c2ccccc2)s1 (configuration not stated) the results were HCMV UL50-53 inh -20 and GIV Gai3 FP 96.
For Cc1cc(Cl)ccc1NC(=O)C(=O)NCc1ccco1 the results were HCMV UL50-53 inh 0, GIV Gai3 FP 105, Sa growth 42C 102 and Sa growth 42C second temp 108.
Screening COc1ccccc1CNC(=O)c1ccc(N2CC3CC(C2)c2cccc(=O)n2C3)c(NC(=O)c2ccncc2)c1 (configuration not stated) returned HCMV UL50-53 inh -31, GIV Gai3 FP 105, Sa growth 42C 90 and Sa growth 42C second temp 84.
For COc1ccc(N2CCOCC2)c(NC(=O)c2ccco2)c1 the results were HCMV UL50-53 inh -20, GIV Gai3 FP 105, Sa growth 42C 97 and Sa growth 42C second temp 86.
Screening Cc1cc(C(=O)OCC(=O)c2ccc3c(c2)OCO3)c2ccccc2n1 returned HCMV UL50-53 inh -31, Sa growth 42C 127 and Sa growth 42C second temp 98.
`CCOC(=O)c1cnc(S/C=C/C(=O)c2ccccc2)nc1N` gave HCMV UL50-53 inh -1, GIV Gai3 FP 104, Sa growth 42C 89 and Sa growth 42C second temp 78.
For CCCc1c(N)ccc2c(=O)cc(C(=O)OCC)oc12 the results were HCMV UL50-53 inh -15, GIV Gai3 FP 99, Sa growth 42C 109 and Sa growth 42C second temp 63.
`COC(=O)C1=C(C)N=C2SC(C)C(=O)N2C1c1ccc(C(C)C)cc1` (configuration not stated) gave GIV Gai3 FP 98, Sa growth 42C 98 and Sa growth 42C second temp 83.
`O=C(O)c1cc2ccc(F)cc2[nH]1` gave HCMV UL50-53 inh 20, GIV Gai3 FP 105, Sa growth 42C 84 and Sa growth 42C second temp 88.
`CCOC(=O)/C(C#N)=C/Nc1ccn[nH]1` gave HCMV UL50-53 inh 0, GIV Gai3 FP 103, Sa growth 42C 106 and Sa growth 42C second temp 100.
C=CCNC(=O)C1CC(c2ccccc2OC)=NO1 (configuration not stated) was read as HCMV UL50-53 inh -13, GIV Gai3 FP 99, Sa growth 42C 106 and Sa growth 42C second temp 91.
For N#CC1CCC(CNC(=O)c2sc3ccccc3c2Cl)CC1 (configuration not stated) the results were GIV Gai3 FP 98, Sa growth 42C 102 and Sa growth 42C second temp 76.
`O=C(COc1cccc(NC(=O)c2ccccc2)c1)NCCOc1ccccc1` gave HCMV UL50-53 inh -13, Sa growth 42C 93 and Sa growth 42C second temp 80.
COc1cc(Br)c(C2CC(=O)Nc3cc(OC)c(OC)c(OC)c32)cc1OC (configuration not stated) was read as HCMV UL50-53 inh -6, GIV Gai3 FP 105, Sa growth 42C 109 and Sa growth 42C second temp 96.
Screening C=C(C)Cn1c(C2CCCO2)nc2ccccc21 (configuration not stated) returned HCMV UL50-53 inh -10 and GIV Gai3 FP 102.
For O=C(Nc1ccccc1Cl)C1CCN(c2nc3ccccc3[nH]2)CC1 the results were GIV Gai3 FP 103, Sa growth 42C 116 and Sa growth 42C second temp 77.
Cc1ccc(CN(C)C(=O)C2CCN(C(=O)Nc3ccccc3)CC2)o1 was read as HCMV UL50-53 inh -5, Sa growth 42C 87 and Sa growth 42C second temp 93.
`CCCOc1ccc(-c2nnc3sc(-c4ccncc4)nn23)cc1` gave HCMV UL50-53 inh 0 and GIV Gai3 FP 107.
For COc1cccc(N2CCN(C(=O)CCS(=O)(=O)c3ccc4c(c3)oc(=O)n4C)CC2)c1 the results were GIV Gai3 FP 107, Sa growth 42C 101 and Sa growth 42C second temp 82.
Screening COc1ccc(S(=O)(=O)Cc2ccc(C(=O)NC3CCN(Cc4ccccc4)CC3)o2)cc1 returned HCMV UL50-53 inh 0, GIV Gai3 FP 107, Sa growth 42C 124 and Sa growth 42C second temp 101.
Screening CCOc1ccc(NC(=O)C(Cc2ccccc2)NC(=O)C2CCCCC2)cc1 (configuration not stated) returned HCMV UL50-53 inh -33, GIV Gai3 FP 95, Sa growth 42C 108 and Sa growth 42C second temp 80.
For CC1CCN(c2oc(/C=C/c3ccc(F)cc3)nc2C#N)CC1 the results were HCMV UL50-53 inh -22, GIV Gai3 FP 107, Sa growth 42C 93 and Sa growth 42C second temp 87.
`O=S(=O)(c1ccc(Cl)cc1)N1CCN(c2nc(-c3cccs3)ns2)CC1` gave HCMV UL50-53 inh 1, GIV Gai3 FP 96, Sa growth 42C 101 and Sa growth 42C second temp 96.
`CCOC(=O)Cc1ccc(NC(=O)N2CCSc3ccccc32)cc1` gave HCMV UL50-53 inh 8, GIV Gai3 FP 101&103, Sa growth 42C 89 and Sa growth 42C second temp 101.
For CCO/C=N/c1c(C#N)c(CC#N)nn1-c1ccccc1 the results were HCMV UL50-53 inh -12, GIV Gai3 FP 131, Sa growth 42C 83 and Sa growth 42C second temp 75.
Screening Cc1ccc(Cl)cc1N1CCN(C(=O)C2CCN(S(=O)(=O)c3cn(C)cn3)CC2)CC1 returned GIV Gai3 FP 98, Sa growth 42C 87 and Sa growth 42C second temp 85.
`CCOCCc1nn2c(=O)cc(COC(=O)c3ccc(NC(=O)c4cccs4)cc3)nc2s1` gave GIV Gai3 FP 106, Sa growth 42C 96 and Sa growth 42C second temp 101.
CN(C)c1ccc(C(CNC(=O)c2ccccc2Br)N(C)C)cc1 (configuration not stated) was read as HCMV UL50-53 inh -30 and GIV Gai3 FP 100.
For COCCOC(=O)c1c(C)oc2ccc(OCc3ccc(-c4cnc(-c5ccccc5)o4)cc3)cc12 the results were HCMV UL50-53 inh -17 and GIV Gai3 FP 107.
`CCOC(=O)c1ccc(NC(=O)CC2SC(=Nc3ccc(S(N)(=O)=O)cc3)NC2=O)cc1` (configuration not stated) gave HCMV UL50-53 inh 9, GIV Gai3 FP 110, Sa growth 42C 108 and Sa growth 42C second temp 105.
COc1ccc(Cl)cc1NC(=O)c1cc(C)nn1-c1ccccc1 was read as HCMV UL50-53 inh -7, GIV Gai3 FP 104, Sa growth 42C 102 and Sa growth 42C second temp 77.
For CCOC(=O)n1c(SCC)nc2ccccc21 the results were HCMV UL50-53 inh -102, GIV Gai3 FP 103, Sa growth 42C 109 and Sa growth 42C second temp 74.
For CCC1=Nc2ccc(Br)cc2C(c2ccccc2)N1CC(=O)NN (configuration not stated) the results were GIV Gai3 FP 108, Sa growth 42C 64 and Sa growth 42C second temp 81.
O=S(=O)(Nc1ccc(-c2ccc(N3CCCCC3)nn2)cc1)c1ccc2c(c1)CCCC2 was read as HCMV UL50-53 inh -7 and GIV Gai3 FP 103.
For COc1ccc(NC(=O)NCCc2c(C)nn(C)c2C)cc1OC the results were HCMV UL50-53 inh 7 and GIV Gai3 FP 105.
`CCOc1ccc(CN2C(=O)c3ccccc3Sc3ccc(C(=O)NCc4ccc5c(c4)OCO5)cc32)cc1` gave HCMV UL50-53 inh -2, GIV Gai3 FP 106, Sa growth 42C 113 and Sa growth 42C second temp 101.

Fetched by compound from above:
`CCOC(=O)/C(C#N)=C/Nc1ccn[nH]1` gave HCMV UL50-53 inh 0, GIV Gai3 FP 103, Sa growth 42C 106 and Sa growth 42C second temp 100.
COc1cc(Br)c(C2CC(=O)Nc3cc(OC)c(OC)c(OC)c32)cc1OC (configuration not stated) was read as HCMV UL50-53 inh -6, GIV Gai3 FP 105, Sa growth 42C 109 and Sa growth 42C second temp 96.

Following part
For Cc1ccc(C(=O)ON=C2CCN(C)CC2)cc1 the results were HCMV UL50-53 inh 14, GIV Gai3 FP 95, Sa growth 42C 114 and Sa growth 42C second temp 62.
`CCSc1nnc(NC(=O)c2ccccc2)s1` gave HCMV UL50-53 inh -33, GIV Gai3 FP 101, Sa growth 42C 82 and Sa growth 42C second temp 49.
COc1ccc(NC(=O)c2cn(-c3ccccc3)nc2-c2cccnc2)cc1 was read as HCMV UL50-53 inh 26, Sa growth 42C 102 and Sa growth 42C second temp 104.
Screening COc1ccccc1-c1noc(-c2ccc(NC3CCCC3)c([N+](=O)[O-])c2)n1 returned HCMV UL50-53 inh -9, GIV Gai3 FP 105, Sa growth 42C 98 and Sa growth 42C second temp 81.
For CCN1C(=O)c2ccccc2Sc2ccc(C(=O)NCCCN(CC(C)C)CC(C)C)cc21 the results were GIV Gai3 FP 103, Sa growth 42C 112 and Sa growth 42C second temp 98.
